# Screening data (PubChem BioAssay)
# Rce1 inh: yeast Rce1p protease inhibitors, primary screen, biochemical, fluorescence, cell-free homogeneous; yeast membranes, quenched prenylated peptide cleavage fluorescence; calls only; hit rate 0.27% among 290,000; AID 2563, 2010;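 active = fall in fluorescence gain of 50% or more versus controls, with final raw signal at or below 3038400; inconclusive = same 50% fall but final raw signal above 3038400; inactive = fall in fluorescence gain under 50%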;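 also: plate controls were neutral control wells for no effect and wells lacking membranes for full effect; tested at 10 µM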
# Target sequence (Q03530 whole entry, looked up): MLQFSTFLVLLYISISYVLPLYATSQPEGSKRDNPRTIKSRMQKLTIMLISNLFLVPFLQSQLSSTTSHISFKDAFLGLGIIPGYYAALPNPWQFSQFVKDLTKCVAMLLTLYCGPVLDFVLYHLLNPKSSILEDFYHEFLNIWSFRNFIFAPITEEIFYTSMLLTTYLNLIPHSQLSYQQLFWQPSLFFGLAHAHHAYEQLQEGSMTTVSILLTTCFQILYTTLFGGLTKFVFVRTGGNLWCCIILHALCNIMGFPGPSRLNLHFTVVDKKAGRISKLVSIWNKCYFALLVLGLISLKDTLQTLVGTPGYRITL
# UUG fidelity: modulators of yeast start codon fidelity, primary screen, whole organism, S. cerevisiae, single point, plate reader | S. cerevisiae UUG-firefly luciferase reporter, luminescence/redox ratio | activity score, % at 18.7 µM | hit rate 0.13% among 350,000 | AID 602363, 2012;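 active = replicate mean at a twofold rise or more, about +100% in these data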;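 also: firefly luciferase made from a UUG start codon reports start codon fidelity; reporter light over untreated wells divided by growth signal over untreated wells; some hits fall short of that in this replicate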
# MT1-MMP act inh: blockers of MT1-MMP proenzyme processing, primary screen, HT1080 RFP-PRO-GFP cells, GFP/RFP fluorescence. Matrix metalloproteinase-14 (Homo sapiens), P50281. GFP/RFP ratio fluorescence, overnight; percent of plate control window, DMSO zero. GFP/RFP ratio change, % at 20 µM. hit rate 0.061% among 360,000;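 active = GFP/RFP ratio change of at least 30% with cell ATP level not reduced by more than half and red fluorescence within 50% of control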; also: strong numbers were not always called active
#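 Assay system: HT1080 RFP-PRO-GFP cells. Benchmarks: DMSO vehicle wells and RFP-L50D-GFP reporter cell wells. Times: overnight cell settling, then overnight compound exposure, 37 °C, 5% CO2. Compound: 20 µM single dose, 1% DMSO. Read-out basis: GFP/RFP fluorescence ratio.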
# PABP polyA inh: PABP poly(A) RNA binding inhibitors, primary screen, biochemical, fluorescence polarization, uHTS | AID 2014, 2009 | Polyadenylate-binding protein 1 (Homo sapiens), P11940 | inhibition, % at 35 µM | hit rate 1% among 290,000;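 active = 50% or more with normal probe brightness, or confirmed in later tests; inconclusive = above 50% with abnormal brightness, or retests that disagree; inactive = below 50% or failed in later tests; about a fifth of its hits are not listed in these tables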;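 also: calls also rest on retests at 20 µM and on dose response follow-up; controls were probe without protein and protein plus probe with vehicle; some compounds called inactive have numbers as strong as hits; many hits fall short of the cut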
# eIF4H inh: human eIF4H binding inhibitors, primary screen, translation initiation inhibitor project, biochemical, uHTS, fluorescence polarization; Eukaryotic translation initiation factor 4H (Homo sapiens), Q15056; eIF4H fluorescence polarization binding assay; inhibition, % at 35 µM; hit rate 0.94% among 290,000; AID 2012, 2009;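 active = 50% or more with normal probe brightness, or confirmed in later tests; inconclusive = above 50% with abnormal brightness, or retests that disagree; inactive = below 50% or failed in later tests; about a fifth of its hits are not listed in these tables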;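 also: calls also rest on retests at 20 µM and on dose response follow-up; 0% = protein and probe with vehicle and 100% = probe without protein; strong numbers were not always called active; many hits fall short of the cut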
# HIV Env fusion: inhibitors of HIV-1 Env-driven cell-cell fusion, primary screen, HeLa-JRFL effector, CEM21 target cells, luciferase; hit rate 1.1% among 360,000; inhibition, % at 12.3 µM;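 active = mean replicate inhibition score of at least 50 and every replicate individually at or above 50; inconclusive = only one of the two criteria met; inactive = mean below 50 and not all replicates reaching 50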;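 also: 0% = plate neutral controls and 100% = maraviroc near 300 nM; one replicate is shown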
# CSC inhib: cancer stem cell viability inhibitors, primary screen, luminescence; cancer stem cell-like cells viability; hit rate 1.1% among 300,000; inhibition, % at 7.5 µM;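 active = mean at 75% or more and at least half the replicates too; inconclusive = mean and replicates disagree; tested in HMLE shEcad cells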;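 also: 0% = median of negative and 100% = median of positive control wells; the first replicate is given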
# eIF4H inh retest: second read-out of eIF4H inh, no call of its own (marks repeat the call); inhibition, %; compound at 20 µM; confirmation average;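 mean of two retest wells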
# PABP polyA inh retest: further read-out of PABP polyA inh, marked with its call; inhibition, %; compound at 20 µM; confirmation repeats;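 mean of two retest wells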
# MT1-MMP act inh RFP: recorded beside MT1-MMP act inh, whose call it bears; RFP signal change, %; measured here: RFP expression control read;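 0 = vehicle wells; hits needed this value within 50% of zero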
# An asterisk follows results filed as active; i = inactive; ? = inconclusive; . = not tested or not shown. An excerpt, so the mix of outcomes need not match the whole.
SMILES,Rce1 inh,UUG fidelity,MT1-MMP act inh,MT1-MMP act inh RFP,PABP polyA inh,eIF4H inh,HIV Env fusion,CSC inhib,others
CCN(CC)CCn1c(NCc2ccc(C)o2)nc2ccccc21,.,-17.5,0.1,-1.3,5.6,0.3,-8.6,-19.4,
CC(=O)NC(Cc1ccc(C)cc1)C(=O)NC1CCN(C(=O)c2ccc([N+](=O)[O-])cc2)CC1 (centres undefined),i,4.2,2.6,-1.3,1.7,2.5,-5.5,-5.4,
O=C(O)c1c(C(=O)N2N=C3/C(=C/c4ccccc4)CCCC3C2c2ccccc2)cccc1[N+](=O)[O-] (centres undefined),i,.,1.8,3.1,17.1,2.6,-5.6,-18.1,
Cc1ccc(NC(=O)CSc2nnc(COc3ccccc3F)n2N)cc1S(=O)(=O)N1CCOCC1,.,-0.2,8.1,-4.7,.,.,9.8,.,
Cc1cccc(N2C(=S)NC3c4cc(Cl)ccc4OC2(C)C3C(=O)N(C)C)c1 (centres undefined),i,.,-3.5,-0.5,19.5,1.0,5.8,-15.0,
O=C(NC(=O)c1ccccc1)C1=C(N2CCCC2)COC1=O,.,-19.6,3.6,2.9,.,.,0.1,-9.2,
O=C(O)C(Oc1ccc2c(-c3ccccc3)cc(=O)oc2c1)c1ccccc1 (centres undefined),i,.,0.5,3.9,-1.6,0.5,3.6,-20.5,
Cc1ccc(/C=C2\SC(=S)N(CCC(=O)NCCCN3CCOCC3)C2=O)cc1,i,-5.2,-1.1,-2.0,-1.1,-2.8,3.6,48.9,
CC(=O)c1ccc(NC(=O)CSc2nnc(C3CC3)n2C2CC2)cc1,.,-6.3,-1.6,5.8,.,.,-22.8,.,
CCNC(=O)C1(C)CCN(Cc2ccccc2-c2ccccc2)C1 (centres undefined),.,-5.0,-2.3,0.0,.,.,-6.5,.,
c1ccc2c(c1)OCCOCCOCCOCCOc1ccccc1OCCOCCOCCO2,i,-29.3,-2.4,-0.8,-2.6,4.3,-14.8,8.7,
CC(C)(C)n1nnnc1C(c1ccc2ncccc2c1)N1CCSCC1 (centres undefined),i,-27.4,-0.2,2.1,-8.0,-0.3,.,2.5,
COc1ccc(NC(=O)N2CCN(CCC#N)CC2)cc1,i,-4.7,-0.2,0.6,-1.4,-3.8,22.9,-7.3,
CCOCCCNC(=S)N1CCN(Cc2ccc3c(c2)OCO3)CC1,i,.,4.0,1.5,10.2,3.1,-0.1,-5.8,
CC(=C/c1ccccc1)/C=N/n1cnnc1,i,-23.5,0.0,-1.9,4.7,-10.6,-446.6,-14.6,
Cc1ccc(N=C2SC(C(=O)O)CC(=O)N2C)cc1C (centres undefined),i,-16.4,-5.0,6.4,2.5,-19.6,-1.8,8.3,
O=C(CN(C(=O)CCC(=O)Nc1nccs1)c1ccc2c(c1)OCO2)NCC1CCCO1 (centres undefined),i,.,1.4,4.9,-5.9,-18.5,.,-16.8,
CCn1c(SCC(=O)Nc2cccc(C)n2)nnc1-c1ccco1,i,5.0,2.2,0.2,-7.5,-1.4,11.4,-3.3,
Cc1ccc(S(=O)(=O)N2CCC(C(=O)OC(C)C(=O)NCc3ccccc3)CC2)cc1C (centres undefined),i,-0.5,0.2,-1.6,2.0,0.1,-223.9,-9.7,
CNc1cncc(C(=O)O)c1,i,.,0.6,2.1,10.6,44.5,16.1,-13.4,
COCCN(Cc1ccccc1)C(=O)C1CCN(C(=O)Nc2ccccc2)CC1,.,-11.0,-2.4,-1.3,.,.,-5.6,2.1,
O=C(CCc1nc2ccccc2c(=O)[nH]1)Nc1cc(Cl)ccc1N1CCCCC1,.,5.4,-13.5,-4.7,.,.,21.4,62.3,
O=C(CCc1c[nH]c2ccccc12)NCc1ccc2c(c1)OCO2,i,-5.6,-1.9,-1.0,2.2,-11.4,.,7.0,
CCOC(=O)C(NC(=O)CC)(N1CCc2ccccc2C1)C(F)(F)F (centres undefined),i,-4.8,-1.3,3.9,2.7,-1.8,-94.8,-2.9,
NS(=O)(=O)c1ccc(NC(=O)CCC2CCCCC2)cc1,i,.,7.5,7.0,-6.1,2.8,.,-13.7,
N/C(Cc1cccs1)=N\OC(=O)COc1ccccc1,i,-8.3,-3.3,-2.7,9.5,8.1,.,2.6,
CCOc1ccc2nc(SCc3cccc(C)c3)nc(C)c2c1,i,.,-4.2,-1.1,0.6,0.4,.,0.0,
O=C1CCC([N+](=O)[O-])C(c2ccc(C(F)(F)F)cc2)N1 (centres undefined),i,.,1.3,-0.5,.,.,19.4,-2.1,
O=C(NCc1nc2ccccc2[nH]1)C1CCCCC1,i,.,0.9,-0.2,-6.4,3.9,6.7,-11.4,
N#C/C(=C\c1ccco1)C(=O)Nc1cccc2ncccc12,i,.,-8.4,-0.5,-18.7,-6.2,-1.7,3.0,
O=C(NNC(=O)c1ccc2nonc2c1)Nc1ccc(Cl)cc1,i,-23.5,1.4,0.5,-5.5,-17.9,4.9,16.2,
COC(=O)C1=C(N)Oc2cc(C)[nH]c(=O)c2C1c1cccnc1 (centres undefined),i,-11.0,8.1,12.3,0.5,-2.8,.,-6.4,
COc1ccccc1C(=O)Nc1c(C)n(C)n(-c2ccccc2)c1=O,i,-10.0,1.4,2.3,3.6,0.5,-34.1,-4.4,
O=C(O)CN1C(=O)/C(=C/C=C/c2ccccc2)SC1=S,i,.,-8.9,2.7,-4.8,7.0,0.6,-6.8,
COc1ccc(C(=O)OCC(=O)c2ccc(Cl)s2)c(OC)c1OC,i,-13.3,-1.3,3.1,.,.,-7.2,-14.7,
CCOC(=O)c1sc(NC(=O)C2CC2)nc1C,i,-6.5,-3.4,1.8,0.0,-11.3,-11.1,-2.6,
CC1=[N+](C)N(c2ccccc2)C(=O)C1N=Cc1c(Cl)cccc1Cl (centres undefined),i,-7.8,-0.2,4.0,-6.7,-0.8,-5.4,-10.0,
O=C(COC(=O)CSc1ccc(Cl)cc1)Nc1ccccc1,.,-8.8,1.6,3.8,.,.,-0.3,.,
Nc1cc(C(F)(F)F)ccc1Nc1ccccc1,i,-17.5,-1.4,4.6,?,-2.9,-5.7,6.9,
Cc1ccc(Cn2ncc(C)c2N)o1,i,.,2.5,4.9,-9.6,-3.2,18.4,.,

# Next section; the last 2 above are carried over.
SMILES,Rce1 inh,UUG fidelity,MT1-MMP act inh,MT1-MMP act inh RFP,PABP polyA inh,eIF4H inh,HIV Env fusion,CSC inhib,others
Nc1cc(C(F)(F)F)ccc1Nc1ccccc1,i,-17.5,-1.4,4.6,?,-2.9,-5.7,6.9,
Cc1ccc(Cn2ncc(C)c2N)o1,i,.,2.5,4.9,-9.6,-3.2,18.4,.,
CCCc1cc(=O)[nH]c(SCc2csc(-c3ccccc3)n2)n1,i,.,5.4,11.4,6.4,0.4,.,13.9,
COc1cc(C(=O)COC(=O)CNC(=O)C2CCCCC2)cc(OC)c1OC,i,-27.2,-5.2,2.8,-8.4,-7.7,16.1,-8.7,
COc1ccc(OC)c(C2C(C(=O)c3cc4ccccc4o3)=C(O)C(=O)N2c2cc(C)on2)c1 (centres undefined),i,-8.0,11.3,3.8,9.4,4.1,.,3.0,
CC(C)N(CCNCC(O)COc1ccc(C(C)(C)c2ccccc2)cc1)C(C)C (centres undefined),i,.,-1.0,-2.9,5.3,0.9,15.4,-0.2,
O=C(NNC(=O)c1ccccc1O)c1ccc(NS(=O)(=O)c2ccc(F)cc2)cc1,i,-9.0,5.2,6.3,.,.,-2.6,56.8,
COc1ccccc1N1CCN(C(=O)C(C)CS(=O)(=O)c2ccc3c(c2)NC(=O)CS3)CC1 (centres undefined),i,-4.4,-0.4,0.2,16.5,56.3*,0.5,-12.7,eIF4H inh retest=83.6*;PABP polyA inh retest=22.4
O=c1c(Cl)c(N2CCC3(CC2)OCCO3)cnn1C12CC3CC(CC(C3)C1)C2,i,7.2,1.4,-2.8,-5.7,-3.4,-3.8,-11.3,
COc1ccc(NC(=O)CSc2nc(SC)ns2)c(OC)c1,.,-14.5,0.0,3.6,1.1,-0.8,-11.7,-1.4,
Oc1ccc(C[C@@H]2CNCCN2CCc2cccc3ccccc23)cc1,i,40.2,-8.3,0.2,.,.,8.0,-16.7,
CC[C@]12c3[nH]c4ccccc4c3CCN1C(=O)C(CC(=O)NCCCN(C)C)C[C@@H]2C(=O)N1CCN(C(=O)C2CC2)CC1 (some centres undefined),.,-0.7,2.4,2.7,.,.,.,-0.9,
COc1cc(CNc2ncnc3c2ncn3[C@H]2CN(Cc3ccc(Cl)cc3)C[C@@H](CO)O2)cc(OC)c1OC,.,-3.6,0.1,-0.9,.,.,-17.4,.,
CCCCCC(O)(c1ccc(OC)cc1)C(CN1CCOCC1)c1ccccc1 (centres undefined),i,3.0,-35.5,-28.3,9.1,-14.4,43.9,8.1,
CCOC(=O)CCn1nnc(N)n1,i,-21.1,0.1,2.7,9.4,2.6,.,-11.1,
O=C(Nc1ccc(-n2cnnn2)cc1)c1cn2ccccc2n1,.,-12.8,0.3,-6.2,-4.6,-11.5,-10.8,28.2,
N#CCC(=O)Nc1ccc(C(=O)OCC(=O)C23CC4CC(CC(C4)C2)C3)cc1,i,10.6,2.6,-1.0,.,.,0.9,-7.2,
COc1ccc([N+](=O)[O-])cc1C(=O)Nc1ccc(Cc2ccncc2)cc1,i,.,0.8,-0.4,-7.2,0.5,-10.9,24.9,
O=C(/C=C/c1ccc(F)cc1)NNC(=O)CCN1CCN(Cc2ccccc2)CC1,.,.,-5.5,-0.7,-7.1,4.4,2.5,11.3,
COc1ccccc1OCC(=O)NC1CCCc2ccccc21 (centres undefined),i,1.3,1.0,-1.4,-4.7,-7.4,16.8,-6.6,
CC(C)(C)c1ccc(C(=O)Nc2ccc(Cl)cc2)cc1,i,.,11.4,9.0,1.9,-0.8,.,6.5,
Cc1cc(C(=O)NCCCc2ccccc2)no1,i,-9.9,3.9,4.1,2.3,-7.7,.,-1.8,
COC(=O)c1ccc(CSc2nnc(NC(=O)c3cc4c(s3)CCCC4)s2)cc1,i,.,-6.7,-5.1,-1.5,-4.1,.,17.3,
O=C(CCC(=O)NNC(=O)Nc1ccc(Cl)cc1)NCc1ccccc1,i,-9.3,-5.4,-3.4,-6.0,-14.4,.,-8.1,
COc1ccccc1NC(=O)NNC(=O)CCN1CCOCC1,i,-1.1,-1.9,4.5,-4.5,5.3,-12.3,4.6,
O=C(NC(=S)NNC(=O)c1cc2ccccc2cc1O)c1ccco1,i,.,9.5,-4.0,-0.8,20.2,18.8,25.3,
C/C=C/c1ccc(OCC(=O)OCC(=O)Nc2c(C)nn(-c3ccccc3)c2C)c(OC)c1,i,.,1.3,1.7,.,.,10.7,-4.4,
O=C(NC12CC3CC(CC(C3)C1)C2)N1CCC(O)CC1,i,-7.1,1.8,-3.0,-1.0,-5.6,.,-8.8,
